Cruzain inh Det – blocks cruzain activity in presence of Triton detergent | purified cruzain, Z-FR-AMC fluorescence, 0.01% Triton | Potency, µM, for inactives: max response, negative = inhibition, hits mostly inhibitors | AID 1478 | 0.43% of 200,000 active | P25779;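 further: plate controls were neutral wells for no effect and buffer without enzyme for full effect; nearly all actives have a fitted effect of over 40% in size; top concentration of the series not given in the record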
Target sequence (P25779 123-467 limits assumed): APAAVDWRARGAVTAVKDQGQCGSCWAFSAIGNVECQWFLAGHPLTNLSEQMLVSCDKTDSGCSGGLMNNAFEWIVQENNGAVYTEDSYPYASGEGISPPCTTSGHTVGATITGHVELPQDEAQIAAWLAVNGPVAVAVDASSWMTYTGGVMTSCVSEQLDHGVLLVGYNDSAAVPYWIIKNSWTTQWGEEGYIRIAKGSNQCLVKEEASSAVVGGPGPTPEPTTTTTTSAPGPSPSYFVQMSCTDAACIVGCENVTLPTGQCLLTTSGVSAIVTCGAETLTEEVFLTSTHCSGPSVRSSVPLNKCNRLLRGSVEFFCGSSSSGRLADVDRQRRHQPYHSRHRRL
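Compounds were screened in titration against cruzain (1.5 nM) with 0.01% Triton X-100 to counter colloidal aggregation. Activity was the AMC fluorescence increase over 60 s after adding 2 uM Z-FR-AMC at pH 5.5.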
LASV entry inh – Lassa virus entry inhibition; Lassa virus pseudotype entry inhibition, cell reporter; control for the full effect not named in the record; Potency, µM (highest dose often 37.9 µM), for inactives: top-dose activity change, negative = inhibition, hits mostly inhibitors; 1.2% of 300,000 active; AID 540256; active means well fitted inhibition curve with a large enough effect; inconclusive means small, poorly fitted or top-dose-only effect, or effect the other way; inactive means flat fitted curve, though single readings scatter; tested in HEK293 cells; further: on the % scale 0 is the no-effect control and ±100 the full control effect; nearly all actives have a fitted effect of over 50% in size; luciferase read-out
SARS PLpro yeast – blocks SARS-CoV papain-like protease in a yeast assay; S. cerevisiae expressing SARS-CoV PLpro, growth rescue; control for the full effect not named in the record; Potency, µM (doses to about 32.9 µM), inactives show at the top dose activity, positive = growth rescue; 0.19% of 330,000 active; active means well fitted rising curve with a large enough effect; inconclusive means small, poorly fitted or top-dose-only effect; inactive means no such curve, though single readings can be large or run the other way; further: 0% is about no effect; nearly all actives have a fitted effect of over 55% in size; growth read by luminescence after 48 h
RE007 growth inh – less growth of the S. pombe RE007 Vpr strain; S. pombe RE007 Vpr strain, BacTiter-Glo ATP luminescence, 24 h; control for the full effect not named in the record; Potency, µM (titrated, usually from 92.2 µM), for the others: at the top dose activity change, negative = less growth; 0.21% of 360,000 active; active = well fitted falling curve with a large enough effect; inconclusive = small, poorly fitted or top-dose-only effect; inactive = no such curve, though single readings can be large or run the other way;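 further: on the % scale 0 is the no-effect control and ±100 the full control effect; nearly all actives have a fitted effect of over 50% in size; the assay follows cell death caused by Vpr and the record does not say whether a fall means rescue or toxicity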
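Fission yeast strain RE007, carrying one chromosomally integrated HIV-1 vpr copy, was seeded at OD 0.01 in PMG+AL medium with 23 nL pinned compound. After 24 h at 30 °C and 99% humidity, viability was read by BacTiter-Glo luminescence.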
Cruzain noTriton – cruzain (T. cruzi) inhibition without detergent | purified cruzain, Z-FR-AMC fluorescence, no detergent | P25779 | Potency, µM, inactives show max response, negative = inhibition, actives largely listed as inhibitors | 2.3% of 200,000 active;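 further: plate controls were enzyme without inhibitor for no effect and buffer without enzyme for full effect; nearly all actives have a fitted effect of over 40% in size; top concentration of the series not given in the record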
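Purified cruzain at 1.5 nM, pre-incubated 15 min with compound at room temperature in 100 mM sodium acetate pH 5.5, 5 mM DTT, 0.00005% Triton X-100. Reaction started with 2 uM Z-FR-AMC; AMC fluorescence increase over 60 s gives rate.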
NS1 inh – influenza NS1 inhibition. S. cerevisiae slowed by influenza A NS1, growth recovery by OD600. Potency, µM (doses to about 46.1 µM), for inactives: top-dose activity, positive = more growth. 0.4% of 270,000 active. AID 2326; active means well fitted rising curve with a large enough effect; inconclusive means small, poorly fitted or top-dose-only effect; inactive means no such curve, though single readings can be large or run the other way; further: nearly all actives have a fitted effect of over 50% in size
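OD600 was taken as the measure of yeast growth restored by compound in an NS1-expressing S. cerevisiae strain. Cells had been washed out of glucose medium and diluted 1:100 into galactose -URA medium, pH 6.0.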
Marburg entry inh – inhibitors of Marburg virus binding or cell entry; Marburg virus pseudotyped entry inhibition, cell reporter; control for the full effect not named in the record; about a third of the inactives were read at about 46 µM; Potency, µM (doses to about 37.8 µM), without a hit: top-dose activity change, negative = inhibition, most hits filed as inhibitors; 1.8% of 300,000 active; AID 540276; active = well fitted inhibition curve with a large enough effect; inconclusive = small, poorly fitted or top-dose-only effect, or effect the other way; inactive = flat fitted curve, though single readings scatter; tested in HEK293 cells; about a fifth of its hits are not listed in these tables; further: on the % scale 0 is the no-effect control and ±100 the full control effect; luciferase read-out
2A StopGo – lowers the luciferase signal of an FMDV 2A StopGo reporter | AID 1159524 | Potency, µM (series often up to 57.9 µM), for inactives: at the top dose signal change, negative = less light | human cells with a luciferase reporter of 2A StopGo recoding; control for the full effect not named in the record | 1.2% of 410,000 active; active = well fitted falling curve with a large enough effect; inconclusive = small, poorly fitted or top-dose-only effect; inactive = no such curve, though single readings can be large or run the other way; tested in HEK293T cells; further: on the % scale 0 is the no-effect control and ±100 the full control effect; nearly all actives have a fitted effect of over 45% in size; luciferase light after 4 h
* = called active by the depositor; ? = inconclusive; / = not tested or not shown; [ ] = another dose, or the depositor's remark. Unless noted, the call rests on the fitted dose curve; in most records, active means well fitted curve in the direction sought with a large enough effect; inconclusive means small, poorly fitted or top-dose-only effect, or another doubt; inactive means no such curve, though single readings can be large; an effect the other way counts as inactive or inconclusive. Potency means the concentration at half of the fitted maximal effect. An unsorted share of the library. Share with any hit: about 4.5%.

SMILES	Cruzain inh Det	LASV entry inh	SARS PLpro yeast	RE007 growth inh	Cruzain noTriton	NS1 inh	Marburg entry inh	2A StopGo
Cc1cc(Cl)ccc1OCc1cc(=O)n2c3c(sc2n1)CCCC3	-1.2%	-20%[46.1 µM]	/	/	3%	/	-3%[46.1 µM]	0%
CN(C)/C=C/C(=O)c1ccc(Oc2ccccc2)cc1	/	?	-3%	?	/	-48%	?	17%
COc1ccc(Cc2nnc(NC(=O)Nc3ccc(C)cc3)s2)cc1OC	/	/	-2%	-2%	/	-3%	/	37%[activator]
O=C1CC(=O)N(c2cccc(F)c2)C(=O)N1	/	/	1%	6%	/	25%	/	9%
O=c1oc2c(CN3CCN(CCO)CC3)c(O)ccc2cc1-c1ccccn1	/	3%[46.1 µM]	-3%	-13%	/	5%	-6%[46.1 µM]	10%
CCCCC(=O)Nc1ccc(C(N)=O)cc1	1.6%	1%	?	49%	3%	5%	16%	20%
Cc1ccc(C(=O)NCCN2CCOCC2)cc1	0.8%	?	2%	4%	5%	17%	24%	/
O=C(Nc1cccc(C(F)(F)F)c1)C1CCCN(S(=O)(=O)c2cnc[nH]2)C1 (configuration not stated)	-0.4%	-6%	-12%	2%	1%	-7%	-1%	-5%
CCOC(=O)C1(C)NC(c2cccc(C)c2)C2C(=O)N(c3ccccc3)C(=O)C21 (configuration not stated)	/	/	7%	-2%	/	?	/	-9%
Cc1ccc(CN2C(=O)C3(c4ccccc42)N(c2cccc(C(F)(F)F)c2)C(=O)CS3(=O)=O)cc1 (configuration not stated)	-8.9%	-19%[46.1 µM]	/	/	13µM*	/	/	?
COc1cc2nc(NCC(C)c3ccccc3)n3nc(-c4ccccc4)nc3c2cc1OC (configuration not stated)	3.7%	/	/	/	5%	/	16%[46.1 µM]	-29%
CCc1ccc(OCCCn2c(-c3ccc(Cl)cc3)nc3ccccc3c2=O)cc1	-2.2%	5%[46.1 µM]	/	/	-10%	/	11%[46.1 µM]	-9%
Cc1cc(C)n(S(=O)(=O)c2ccc(Cl)c(Cl)c2Cl)n1	0.1%	-6%	-10%	-11%	-2%	-42%	-2%	?
CC(=O)NS(=O)(=O)c1ccc(NC(=O)c2ccc(Br)o2)cc1	5.8%	1%	4%	-10%	11%	-1%	4%[46.1 µM]	-4%
CCOC(=O)c1sc2cccc(F)c2c1S(=O)(=O)N1CCN(c2cccc(Cl)c2)CC1	-0.3%	-21%[46.1 µM]	/	/	?	/	/	-14%
Cc1cc(-c2n[nH]c(=S)n2/N=C/c2cccc(O)c2)n[nH]1	/	-3%	1%	10%	/	-1%	-9%	-12%
COc1ccc(Br)cc1CNC(=O)C1CCN(C(=O)N(C)C)CC1	/	0%	1%	6%	/	/	?	-6%
CC1CCCCN1C(=O)Cn1c(=O)oc2ccccc21 (configuration not stated)	-1.1%	-1%	-1%	-1%	-3%	-2%	-5%	29%
Cc1cc(C)nc(NC2=NCCN2C(=S)Nc2c(C)cccc2C)n1	/	/	1%	-2%	/	3%	/	12%
C=CCn1c(SCc2c(C(=O)OC)sc(N)c2C(=O)OC)nnc1-c1ccc(Br)cc1	-2.1%	-17%	1%	20%	-4%	19%	?	-20%
Cc1ccc(C(=O)Nc2cccc(-c3ccc(N4CCOCC4)nn3)c2)cc1[N+](=O)[O-]	/	-3%	-4%	1%	/	/	27%	6%
CCOc1ccc(NC(=O)[C@@H]2CCC(=O)N2C2OC(=O)c3ccccc32)cc1 (some centres not stated)	/	/	1%	-12%	/	-24%	/	-14%
O=C(CN(CC1CCCO1)C(=O)CCC(=O)Nc1nccs1)NCc1ccccc1 (configuration not stated)	-0.9%	17%	11%	5%	7%	6%	10%	7%
COc1ccccc1CNc1nc2nc3c(c(=O)n2[nH]1)CCC3	3.0%	?	1%	118%	-2%	-11%	0%	-9%
O=C(/C=C/c1ccco1)NC(=S)Nc1cc(-c2nc3ccccc3s2)ccc1Cl	-7.4%	-23%	-1%	2%	6.3µM*	10µM*	?	6%
CCC(=O)NC(c1ccc(OC)cc1)c1c(O)ccc2ccccc12 (configuration not stated)	/	/	21%	2%	/	0%	/	2%
CC1Cc2ccccc2N1C(=O)c1cnc2ccccn2c1=O (configuration not stated)	0.4%	-4%	-1%	-2%	-12%	5%	19%	-15%
O=C(CCc1ccccc1)NC(=S)Nc1ccccc1Br	/	/	-1%	?	/	3%	/	8%
O=C(NNc1ncnc2c1cnn2-c1cccc(Cl)c1)c1ccco1	/	/	0%	18%	/	2%	/	25%
CNC(=S)N/N=C(\C)c1ccc(C(C)(C)C)cc1	-12%	22%	19%	0%	-3%	-3%	?	2%
Cc1ccc2oc(=O)c(-c3nc(-c4cccs4)no3)cc2c1	-0.7%	-1%[46.1 µM]	/	/	-2%	/	/	35%[activator]
COc1ccc(CCN2C(=O)CN(C3CCCCCC3)C(=O)C2c2ccc(OC(C)C)c(OC)c2)cc1OC (configuration not stated)	0.7%	11%[46.1 µM]	/	/	-5%	/	/	-13%
CN(c1ccc(C(=O)COC(=O)C2CC2)cc1)S(C)(=O)=O	/	14%	0%	0%	/	/	24%	10%
CCCC(=O)N1CCN(c2nc3ccc(F)cc3s2)CC1	-6.7%	-30%[46.1 µM]	/	/	-10%	/	/	-20%
CCSc1cc(C)nc2ncnn12	3.5%	-8%	18%	-6%	2%	-49%	3%	-1%
CC(C)[C@H](N)c1nnc2n1N=C(c1ccc(Cl)cc1)CS2	/	/	1%	4%	/	5%	/	-10%
CCc1ccc(Nc2nc3ccccc3nc2NS(=O)(=O)c2ccccc2)cc1	-4.5%	8%[46.1 µM]	/	/	7%	/	7%[46.1 µM]	-24%
CCOc1ccc(CCNC(=O)c2ccc3c(Cl)c4c(nc3c2)CCCC4)cc1	0.6%	?	/	/	1%	/	15%[46.1 µM]	?
COCCCNC(=O)c1ccccc1NS(=O)(=O)c1ccc(C)cc1	-2.5%	-5%	-2%	1%	0%	-3%	-2%	5%
COC(=O)Cc1ccc(NC(=S)N2CCN(C)CC2)cc1	/	12%	1%	5%	/	1%	10%[46.1 µM]	10%
Cc1ccnc(NS(=O)(=O)c2ccc(NC(=O)c3ccc(S(=O)(=O)N(C)C)cc3)cc2)n1	/	/	-3%	7%	/	0%	/	-9%
CC(NCc1ccc(S(N)(=O)=O)cc1)C(=O)N1c2ccccc2CC1C (configuration not stated)	/	/	-1%	6%	/	7.9µM*	/	-11%
COc1ccc(Nc2nc(N3CCCC3)c3ccccc3n2)cc1	-15%	?	-3%	42%	-10%	-5%	1.6µM*	?
CN(CC(=O)NCc1ccco1)S(=O)(=O)c1ccc2c(c1)n(C)c(=O)c(=O)n2C	3.1%	1%	2%	5%	-1%	4%	24%	3%
COc1cccc(NC(=O)C(=O)NCC(c2ccco2)N2CCc3ccccc3C2)c1 (configuration not stated)	/	-20%	0%	-4%	/	/	?	-22%
CCN1CCC(N2CCN(c3ccc(Cl)cc3)CC2)CC1	/	/	8%	1%	/	2%	/	-6%
O=C(CSc1ccc(Cl)cc1)NN=C1CCCCCC1	/	-18%[46.1 µM]	0%	-5%	/	/	13%[46.1 µM]	31%
CCC(CC)CN1CCN=C1N(C)C	/	/	2%	-1%	/	-10%	/	-16%
CC[C@@H](C)[C@H](NS(=O)(=O)c1ccc(C)cc1)C(=O)N1CCC(C(=O)NCC(=O)O)CC1	5.1%	4%	-17%	7%	7%	-3%	7%	-2%
CCC(NC(=O)N(Cc1ccccc1)Cc1ccc2c(c1)OCO2)(C(F)(F)F)C(F)(F)F	-11%	-27%	5%	-7%	2%	-6%	?	0%

(next part)
SMILES	Cruzain inh Det	LASV entry inh	SARS PLpro yeast	RE007 growth inh	Cruzain noTriton	NS1 inh	Marburg entry inh	2A StopGo
COc1ccccc1NC(=O)CSCc1nc2ccccc2[nH]1	-10%	3%	27%	17%	-5%	1%	10%	-12%
CC(=O)c1cccc(NC(=O)CCC(=O)Oc2ccc(C)cc2)c1	/	/	0%	6%	/	2%	/	24%
COCCn1c(C)cc(C(=O)COC(=O)c2cc3c(s2)CCC3)c1C	-5.8%	12%	7%	33%	8%	2%	21%[46.1 µM]	51%[activator]
O=C(Nc1ccccn1)c1onc2c1CCCC2	-2.2%	7.3µM*	-13%	10µM*	-12%	3%	?	14µM*
COc1cc(OC)c(NC(=O)Cn2c(=O)c(C(F)(F)F)nc3ccccc32)cc1Cl	1.4%	-10%[46.1 µM]	/	/	-6%	/	/	6%
COC(=O)c1cc2ccccc2oc1=O	2.9%	1%	2%	10%	3%	-2%	?	11%
O=C(c1ccc(CSc2nc3ccncc3n2Cc2cccc(F)c2)cc1)N1CCCCCC1	-8.0%	-19%[46.1 µM]	/	/	2%	/	-1%[46.1 µM]	0%
CCn1c2ccccc2c2cc(CN3CCN(Cc4cc(OC)ccc4O)CC3)ccc21	/	?	8%	-20%	/	/	?	-25%
CC(=O)c1cccc(NC(=O)C2(c3ccccc3)CC2(Cl)Cl)c1 (configuration not stated)	/	-27%	-1%	6%	/	1%	1%[46.1 µM]	-18%
Cc1ccc(N(CC(=O)NC2CCCC2)C(=O)c2ccc(C)s2)cc1	/	3%	0%	2%	/	-6%	-17%	1%
CC(=O)c1cccc(NC(=O)Nc2csc3c2CCCC3)c1	/	2%[46.1 µM]	5%	-19%	/	/	?	7%
Cc1cc2c(SCC(=O)NC3CCCC3)ncnc2s1	/	-5%	0%	8%	/	-4%	17%[46.1 µM]	3%
COc1ccccc1NC(=O)Cn1c(SCC(=O)N(C)c2ccccc2)nc2ccccc21	1.4%	?	/	/	23%	/	/	20%
Cc1cc2cc(CN(Cc3cccs3)Cc3nnnn3CC3CCCO3)c(=O)[nH]c2cc1C (configuration not stated)	-5.7%	-11%	-3%	-7%	?	-4%	?	/
CCC(CC)C(=O)Nc1c2cnn(-c3ccccc3)c2nc(=O)n1-c1ccccc1	2.4%	14%	3%	-14%	8%	13%	?	-8%
